MLL AF4-AF9 inh: blocks AF4 peptide binding to human AF9; AlphaScreen, biotin-AF4 peptide binding to FLAG-AF9; 350,000 tested, 0.47% active; P42568; inhibition, % at 10 µM;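 active means every replicate reaching a set inhibition limit, whatever the replicate mean, cut at about 25% in these data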;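 further: 0% = plate neutral control median and 100% = total signal loss; the record names both 10 and 1 µM as test concentration; the first replicate is given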
Target sequence (P42568 whole entry, looked up): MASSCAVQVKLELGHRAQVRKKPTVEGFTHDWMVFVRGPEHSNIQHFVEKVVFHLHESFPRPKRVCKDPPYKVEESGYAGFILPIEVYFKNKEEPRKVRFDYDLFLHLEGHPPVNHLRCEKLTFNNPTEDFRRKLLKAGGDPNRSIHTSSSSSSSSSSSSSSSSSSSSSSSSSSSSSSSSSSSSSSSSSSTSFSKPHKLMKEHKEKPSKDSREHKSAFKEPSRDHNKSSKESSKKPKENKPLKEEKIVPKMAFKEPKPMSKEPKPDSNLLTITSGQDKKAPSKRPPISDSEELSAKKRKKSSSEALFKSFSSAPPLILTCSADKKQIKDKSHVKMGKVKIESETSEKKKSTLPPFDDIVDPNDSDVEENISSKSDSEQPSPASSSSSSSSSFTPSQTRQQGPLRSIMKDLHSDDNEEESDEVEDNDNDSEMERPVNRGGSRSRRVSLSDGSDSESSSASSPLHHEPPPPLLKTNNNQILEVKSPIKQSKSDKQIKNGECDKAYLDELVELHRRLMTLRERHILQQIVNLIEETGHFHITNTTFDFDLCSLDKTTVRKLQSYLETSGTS
FGF22 binding: binders of recombinant human FGF22 by thermal shift | calls only at 9.99 µM | 340,000 tested, 1.5% active | SYPRO orange fluorescence; percent of sucrose octasulfate shift, DMSO zero | AID 651658 | Q9HCT0;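 active means melting point raised past a set limit in the mean and every replicate; three in four hits are not shown here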
Target sequence (Q9HCT0 whole entry, looked up): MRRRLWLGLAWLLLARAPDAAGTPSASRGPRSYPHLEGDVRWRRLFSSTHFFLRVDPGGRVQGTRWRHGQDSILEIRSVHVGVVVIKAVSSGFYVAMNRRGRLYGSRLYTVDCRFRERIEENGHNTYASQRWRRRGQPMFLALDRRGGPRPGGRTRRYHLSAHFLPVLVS
* = called active by the depositor; i = inactive. This is a subset; the hit share may differ from the screen's.

nr	molecule	MLL AF4-AF9 inh	FGF22 binding
1	C[C@@H]1CCCCO[C@H](CN(C)C(=O)Nc2ccc(F)cc2)[C@@H](C)CN([C@H](C)CO)C(=O)c2cc(NS(=O)(=O)c3ccccc3)ccc2O1	-0.2	i
2	COCC(=O)N(C)C[C@H]1Oc2cc(-c3cccc(F)c3)ccc2S(=O)(=O)N([C@H](C)CO)C[C@@H]1C	-1.9	i
3	N#C[C@H]1[C@@H](c2ccc(C#CC3CCCCC3)cc2)[C@@H](CO)N1S(=O)(=O)c1ccccc1	1.6	i
4	CC(C)NC(=O)N(C)C[C@H]1Oc2ccc(NC(=O)Cn3cnnn3)cc2CC(=O)N([C@H](C)CO)C[C@H]1C	-1.2	i
5	CCCNC(=O)Nc1ccc2c(c1)C(=O)N(C)C[C@H](OC)[C@H](C)CN(Cc1ccc(-c3ccccn3)cc1)[C@H](C)CO2	6.6	i
6	COc1ccc(CN(C)C[C@H]2Oc3c(NC(=O)C4CCCCC4)cccc3C(=O)N([C@@H](C)CO)C[C@H]2C)cc1	-1.7	i
7	O=C(NC1CCCC1)N1CCCCN2[C@H](CO)[C@@H](c3ccc(-c4cccnc4)cc3)[C@H]2C1	-3.7	i
8	CN(N=Cc1ccc2c(c1)OCO2)C(=O)c1ccccc1N	-3.5	i

Structural class, those above with a carbonyl joined to an NH by a bond outside any ring
nr	molecule	MLL AF4-AF9 inh	FGF22 binding
1	C[C@@H]1CCCCO[C@H](CN(C)C(=O)Nc2ccc(F)cc2)[C@@H](C)CN([C@H](C)CO)C(=O)c2cc(NS(=O)(=O)c3ccccc3)ccc2O1	-0.2	i
4	CC(C)NC(=O)N(C)C[C@H]1Oc2ccc(NC(=O)Cn3cnnn3)cc2CC(=O)N([C@H](C)CO)C[C@H]1C	-1.2	i
5	CCCNC(=O)Nc1ccc2c(c1)C(=O)N(C)C[C@H](OC)[C@H](C)CN(Cc1ccc(-c3ccccn3)cc1)[C@H](C)CO2	6.6	i
6	COc1ccc(CN(C)C[C@H]2Oc3c(NC(=O)C4CCCCC4)cccc3C(=O)N([C@@H](C)CO)C[C@H]2C)cc1	-1.7	i
7	O=C(NC1CCCC1)N1CCCCN2[C@H](CO)[C@@H](c3ccc(-c4cccnc4)cc3)[C@H]2C1	-3.7	i

Looked up by compound from the entries so far:
nr	molecule	MLL AF4-AF9 inh	FGF22 binding
8	CN(N=Cc1ccc2c(c1)OCO2)C(=O)c1ccccc1N	-3.5	i
3	N#C[C@H]1[C@@H](c2ccc(C#CC3CCCCC3)cc2)[C@@H](CO)N1S(=O)(=O)c1ccccc1	1.6	i

(cont.)
nr	molecule	MLL AF4-AF9 inh	FGF22 binding
9	O=C(NC1CCCC1)N1CC2(C1)[C@H](c1ccccc1)[C@H](CO)N2S(=O)(=O)Cc1ccccc1	-1.1	i
10	C[C@@H]1CN([C@H](C)CO)C(=O)Cc2cc(NC(=O)C3CC3)ccc2O[C@@H]1CN(C)C(=O)Nc1ccc(F)cc1	-16	i
11	COc1ccc2c3c([nH]c2c1)[C@@H](CO)N(C)CC31CN(C(=O)c2ccccc2F)C1	1.5	i
12	O=C(C[C@H]1C[C@H]2c3cc(NC(=O)C4CCOCC4)ccc3O[C@H]2[C@@H](CO)O1)NCc1ccccc1F	-2.1	i
13	CS(=O)(=O)N1CCCCN2[C@@H](CO)[C@H](c3ccc(C4=CCCC4)cc3)[C@@H]2C1	-1.0	i
14	C[C@H](CO)N1C[C@H](C)[C@H](CN(C)C(=O)Nc2ccc(C(F)(F)F)cc2)OCCCC[C@H](C)Oc2ccc(NC(=O)C3CCCCC3)cc2C1=O	-2.0	i
15	O=C(N[C@@H]1CC[C@@H](CCn2cc(-c3ccccn3)nn2)O[C@@H]1CO)c1ccc(F)cc1	-2.0	i
16	C[C@@H]1CN([C@H](C)CO)C(=O)c2cc(NS(C)(=O)=O)ccc2O[C@@H]1CN(C)C(=O)NC1CCCCC1	0.4	i
17	C[C@@H]1CN([C@@H](C)CO)C(=O)c2cccc(NC(=O)Nc3ccccc3)c2O[C@H]1CN(C)Cc1ccc(C(F)(F)F)cc1	5.7	i
18	C[C@@H]1CN([C@H](C)CO)C(=O)c2cc(NS(=O)(=O)c3ccc(F)cc3)ccc2O[C@@H](C)CCCCO[C@H]1CN(C)S(=O)(=O)c1ccccc1	-1.2	i
19	COc1ccc(CNC(=O)C[C@H]2C=C[C@H](NC(=O)CN(C)C)[C@H](CO)O2)cc1	-0.9	i
20	CN1c2ccc(-c3ccccc3)cc2[C@@H]2[C@@H](CCN2C(=O)Cc2cccnc2)[C@@H]1CO	10.0	i
21	COC(=O)[C@@H]1[C@@H](CO)[C@@H]2Cn3c(cccc3=O)[C@@H]2N1C(=O)C1CCC1	-1.0	i
22	CN1c2ccc(-c3cccc(C#N)c3)cc2[C@H]2[C@H](CCN2S(=O)(=O)c2ccccc2)[C@@H]1CO	-1.4	i
23	C[C@H](CO)N1C[C@H](C)[C@H](CN(C)CC2CC2)OCCCC[C@H](C)Oc2ccc(NC(=O)Cc3ccccc3)cc2C1=O	-0.4	i
24	COCC(=O)N(C)C[C@@H]1Oc2cc(C#CC3CC3)ccc2S(=O)(=O)N([C@H](C)CO)C[C@H]1C	-0.4	i
25	O=C(C[C@@H]1C=C[C@H](NC(=O)Cc2ccccn2)[C@H](CO)O1)NCCCN1CCOCC1	-0.3	i
26	O=C(NC[C@H]1N[C@H](CO)[C@@H]1c1ccccc1)C1CCCC1	-14	i
27	Cc1noc(C)c1NC(=O)Nc1ccc2c(c1)C(=O)N([C@H](C)CO)C[C@@H](C)[C@H](CN(C)C(=O)Nc1cccc3ccccc13)O2	-6.2	i
28	C[C@H]1CCCCO[C@H](CN(C)C(=O)c2ccccc2)[C@@H](C)CN([C@@H](C)CO)C(=O)c2cc(NS(=O)(=O)c3cccs3)ccc2O1	2.9	i
29	C[C@@H]1CN([C@H](C)CO)C(=O)c2cccc(NC(=O)c3nc4ccccc4s3)c2O[C@@H]1CN(C)C(=O)NC1CCCCC1	5.7	i
30	COCCNC(=O)[C@H]1[C@H](CO)[C@H]2Cn3c(ccc(-c4ccccc4F)c3=O)[C@@H]1N2S(C)(=O)=O	0.0	i
31	C[C@@H](NC(=O)[C@@H]1[C@@H](CO)[C@@H]2Cn3c(cccc3=O)[C@H]1N2C(=O)C1CCC1)c1ccccc1	-1.8	i
32	C[C@@H](NC(=O)C[C@H]1CC[C@@H](NC(=O)CN2CCOCC2)[C@H](CO)O1)c1ccccc1	-0.1	i
33	O=C(C[C@H]1C[C@@H]2c3cc(NC(=O)Nc4ccccc4)ccc3O[C@@H]2[C@H](CO)O1)NCc1cccc(F)c1	0.3	i
34	Cc1noc(C)c1NC(=O)N(C)C[C@H]1Oc2c(NC(=O)Nc3cccc4ccccc34)cccc2C(=O)N([C@@H](C)CO)C[C@@H]1C	0.3	i
35	COc1ccc(C(=O)Nc2ccc3c(c2)C(=O)N(C)C[C@@H](OC)[C@@H](C)CN(C)[C@H](C)CO3)cc1	0.5	i
36	C[C@H]1CN([C@@H](C)CO)C(=O)Cc2cc(NS(=O)(=O)c3cn(C)cn3)ccc2O[C@@H]1CN(C)S(C)(=O)=O	-1.9	i
37	CCCNC(=O)N1C[C@@H](C)[C@@H](OC)CN(C)C(=O)c2cc(NC(=O)CC)ccc2OC[C@@H]1C	-1.2	i
38	COc1ccc2c3c(n(C)c2c1)[C@H](CO)NCC31CN(CC2CC2)C1	19	i
39	COCC#Cc1cnc2c(c1)C(=O)N([C@@H](C)CO)C[C@@H](C)[C@@H](CN(C)C(=O)c1cccc(F)c1)O2	-4.1	i
40	OC[C@H]1[C@@H](c2ccccc2)C2(CN(Cc3nccs3)C2)N1Cc1cc(F)ccc1F	-2.2	i
41	COc1ccc(NC(=O)Nc2ccc3c(c2)C(=O)N([C@H](C)CO)C[C@H](C)[C@H](CN(C)Cc2ccccc2)OCCCC[C@H](C)O3)cc1	7.6	i
42	C[C@@H]1CN([C@H](C)CO)C(=O)Cc2cc(NC(=O)NC3CCCCC3)ccc2O[C@@H]1CN(C)Cc1ccc(C(=O)O)cc1	-3.2	i
43	C/C=C/c1cnc2c(c1)C(=O)N([C@H](C)CO)C[C@@H](C)[C@H](CN(C)Cc1ccncc1)O2	-3.9	i
44	COc1ccc(CN(C)C[C@@H]2OCCCC[C@H](C)Oc3ccc(NS(=O)(=O)c4cn(C)cn4)cc3C(=O)N([C@H](C)CO)C[C@@H]2C)cc1	-7.9	i
45	COCC(=O)Nc1ccc2c(c1)[C@H]1C[C@H](CC(=O)NC3CCCC3)O[C@H](CO)[C@H]1O2	0.9	i
46	C[C@@H]1CN([C@H](C)CO)C(=O)Cc2cc(NC(=O)Nc3cccc4ccccc34)ccc2O[C@H]1CN(C)C(=O)Nc1ccc2c(c1)OCO2	2.0	i
47	CO[C@H]1CN(C)C(=O)c2cc(NC(C)=O)ccc2OC[C@@H](C)N(C(=O)c2cccnc2)C[C@@H]1C	-2.6	i
48	C[C@@H]1CCCCO[C@@H](CN(C)C(=O)Nc2cccc3ccccc23)[C@@H](C)CN([C@@H](C)CO)C(=O)c2cc(NC(=O)NC3CCCCC3)ccc2O1	-6.0	i
49	Cc1noc(C)c1NC(=O)N(C)C[C@H]1Oc2c(cccc2N(C)C)C(=O)N([C@@H](C)CO)C[C@H]1C	-3.5	i
50	COc1ccc(CN(C)C[C@H]2OCCCC[C@@H](C)Oc3ccc(NC(=O)NC4CCCCC4)cc3C(=O)N([C@@H](C)CO)C[C@H]2C)cc1	8.6	i
51	COc1ccc(CN(C)C[C@@H]2Oc3ccc(NS(=O)(=O)c4ccc(C)cc4)cc3CC(=O)N([C@H](C)CO)C[C@@H]2C)cc1	-9.6	i
52	O=C(C[C@@H]1C[C@H]2c3cc(NC(=O)C4CCC4)ccc3O[C@H]2[C@@H](CO)O1)NCCc1ccccc1	-0.7	i
53	C[C@H]1CN([C@@H](C)CO)C(=O)c2cc(-c3cccc(C#N)c3)cnc2O[C@H]1CN(C)Cc1cccnc1	-5.3	i
54	Cc1ccccc1S(=O)(=O)N1C[C@@H](O)COC[C@@H]2O[C@H](CC(=O)N3CCN(C)CC3)CC[C@H]21	-1.1	i
55	COc1ccc(-c2ccc3c(c2)[C@H]2[C@H](CCN2C(=O)NC2CCCCC2)[C@H](CO)N3C)cc1	4.9	i
56	CCNC(=O)c1cc2c(c(-c3cccc(-c4cccc(F)c4)c3)n1)[C@H](CCO)N([S@@](=O)C(C)(C)C)C2	5.4	i
57	C[C@@H]1CN([C@@H](C)CO)C(=O)c2cc(NS(=O)(=O)c3ccc(Cl)cc3)ccc2O[C@@H](C)CCCCO[C@@H]1CN(C)Cc1ccc(C(F)(F)F)cc1	-3.6	i
58	CCCN(C)C[C@H]1OCCCC[C@@H](C)Oc2ccc(NS(=O)(=O)c3c(C)noc3C)cc2C(=O)N([C@@H](C)CO)C[C@H]1C	3.3	i
59	C[C@H](CO)N1C[C@H](C)[C@H](CN(C)Cc2ccc(C(=O)Nc3ccccc3N)cc2)Oc2ccc(N(C)C)cc2CC1=O	9.6	i
60	C[C@H]1CN([C@@H](C)CO)S(=O)(=O)c2ccc(C#CC3(O)CCCC3)cc2O[C@H]1CN(C)C(=O)Nc1cccc(F)c1	3.7	i
61	CC(C)CC#Cc1ccc2c(c1)O[C@@H](CN(C)C(=O)CN(C)C)[C@@H](C)CN([C@@H](C)CO)S2(=O)=O	7.5	i
62	C[C@H](CO)N1C[C@H](C)[C@@H](CN(C)Cc2ccccc2)Oc2c(NC(=O)Nc3ccccc3)cccc2C1=O	5.5	i
63	C[C@@H]1CCCCO[C@@H](CN(C)CC2CCCCC2)[C@H](C)CN([C@@H](C)CO)C(=O)c2cc(NS(=O)(=O)c3ccc(F)cc3)ccc2O1	1.2	i
64	Cc1noc(C)c1S(=O)(=O)N(C)C[C@@H]1Oc2ccc(NC(=O)Cn3cnnn3)cc2CC(=O)N([C@H](C)CO)C[C@@H]1C	-2.0	i

The list continues:
nr	molecule	MLL AF4-AF9 inh	FGF22 binding
65	CC(C)NC(=O)Nc1cccc2c1O[C@@H](CN(C)S(=O)(=O)c1cn(C)cn1)[C@@H](C)CN([C@H](C)CO)C2=O	-1.7	i
66	CC(C)NC(=O)N(C)C[C@@H]1OCCCC[C@H](C)Oc2ccc(NS(C)(=O)=O)cc2C(=O)N([C@H](C)CO)C[C@@H]1C	0.0	i
67	C[C@@H]1CN([C@H](C)CO)C(=O)c2cc(NC(=O)Nc3ccccc3)ccc2O[C@H]1CN(C)Cc1ccc(C(=O)O)cc1	-1.9	i
68	C[C@H]1CCCCO[C@H](CN(C)Cc2ccncc2)[C@@H](C)CN([C@@H](C)CO)C(=O)c2cc(NC(=O)CCCN(C)C)ccc2O1	-9.4	i
69	Cc1noc(C)c1NC(=O)N(C)C[C@H]1Oc2ccc(NC(=O)C3CC3)cc2CC(=O)N([C@H](C)CO)C[C@@H]1C	-3.0	i
70	C[C@H](CO)N1C[C@H](C)[C@H](CN(C)S(=O)(=O)c2ccccc2)Oc2ccc(N(C)C)cc2C1=O	4.7	i
71	Cc1ccccc1S(=O)(=O)N1CC[C@H]2[C@H](CO)Nc3ccc(-c4ccccc4F)cc3[C@H]21	-5.2	i
72	COc1ccccc1-c1ccc([C@H]2[C@@H](CO)N(C(=O)C3CCOCC3)[C@H]2C#N)cc1	0.8	i
73	C[C@H](O)C#Cc1cnc2c(c1)C(=O)N([C@@H](C)CO)C[C@H](C)[C@H](CN(C)C(=O)c1ccccc1F)O2	-0.9	i
74	CC(C)NC(=O)N(C)C[C@H]1Oc2cc(C#Cc3ccccn3)ccc2S(=O)(=O)N([C@H](C)CO)C[C@H]1C	-0.4	i
75	C[C@@H]1CN([C@H](C)CO)C(=O)c2cc(NC(=O)c3ccncc3)ccc2O[C@@H]1CN(C)C(=O)Nc1ccc(F)cc1	-0.1	i
76	CN(C)Cc1cn(CC[C@H]2CC[C@H](NS(=O)(=O)c3ccccc3)[C@H](CO)O2)nn1	-3.8	i
77	CO[C@@H](C(=O)N(C)C[C@@H]1OCc2ccccc2-c2ccccc2C(=O)N([C@H](C)CO)C[C@H]1C)c1ccccc1	-1.6	i
